From PubChem BioAssay
DUX4 inh – inhibitors of DUX4-driven ZSCAN4 reporter expression, primary screen, 293T cells, Gaussia and Italica luciferase; 293T-iDUX4 ZSCAN4-Gaussia luciferase reporter, 24 h; active compounds read low; activity change, negative = inhibition, % (concentration not given with the values); actives 0.8% (n = 37,000);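 active = -10% or lower and over 25 points stronger than a control reporter; inconclusive = -10% or lower with a smaller gap; inactive = above -10%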;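 also: 0% = median of neutral control wells and -100% = median of positive control wells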
DUX4 inh difference – recorded beside DUX4 inh, whose call it bears; Gaussia minus Italica difference, %; measured here: selective DUX4 reporter inhibition;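 worked out from the two reporters; negative = selective loss of the DUX4 reporter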
DUX4 inh control – second read-out of DUX4 inh, no call of its own (marks repeat the call); activity change, negative = inhibition, %; measured here: Italica tet-on control reporter;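 0 = neutral control and -100 = positive control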
* = called active by the depositor; u = inconclusive; x = not tested or not shown. A portion of the library; rates above refer to the full screens.

DUX4 inh,DUX4 inh difference,DUX4 inh control,molecule
u,x,x,COc1ccc(NC(=O)N2CCCCN3[C@H](CO)[C@H](c4ccc(-c5ccccc5F)cc4)[C@@H]3C2)cc1
4.0,0.1,3.9,O=C(C[C@H]1C[C@@H]2c3cc(NC(=O)Cc4ccncc4)ccc3O[C@@H]2[C@H](CO)O1)NCCN1CCCCC1
11.7,9.0,2.7,O=C(C[C@H]1CC[C@@H]2[C@H](COC[C@H](O)CN2Cc2cccc(Cl)c2)O1)N1CCOCC1
-0.6,-3.7,3.1,COc1ccc(CN(C)C[C@H]2OCCCC[C@@H](C)Oc3ccc(NS(C)(=O)=O)cc3C(=O)N([C@@H](C)CO)C[C@H]2C)cc1
10.0,6.5,3.5,CO[C@@H]1CN(C)C(=O)c2ccc(NC(=O)c3ccccc3F)cc2OC[C@@H](C)N(C)C[C@@H]1C
5.3,4.0,1.3,COc1ccc2c3c(n(C)c2c1)[C@H](CO)N(C(=O)c1ccncc1)CC31CN(C(C)=O)C1
u,x,x,COc1cccc(S(=O)(=O)N2CC[C@H]3[C@@H](CO)N(C)c4ccc(C#Cc5cccnc5)cc4[C@H]32)c1
-1.4,5.6,-7.0,CCCNC(=O)N1[C@H](CO)[C@H](c2ccccc2C2=CCCC2)[C@@H]1C#N

(listing goes on)
DUX4 inh,DUX4 inh difference,DUX4 inh control,molecule
0.6,-2.5,3.1,Cc1ccccc1S(=O)(=O)Nc1ccc2c(c1)C(=O)N(C)[C@@H]1CC[C@@H](CC(=O)O)O[C@H]1CO2
2.0,3.1,-1.0,O=C(C[C@@H]1C[C@H]2c3cc(NC(=O)Nc4ccccc4F)ccc3O[C@H]2[C@@H](CO)O1)NCc1cc(F)ccc1F
1.0,2.2,-1.1,COc1ccc(S(=O)(=O)N2CCCCN3[C@H](CO)[C@@H](c4ccc(C#CC(C)C)cc4)[C@@H]3C2)cc1
0.4,-4.1,4.5,Cc1noc(C)c1S(=O)(=O)N(C)C[C@H]1OCCCC[C@H](C)Oc2ccc(NC(=O)Nc3cccc4ccccc34)cc2C(=O)N([C@H](C)CO)C[C@H]1C
-0.2,-2.9,2.7,COCC(=O)N1CC2(CN(C(=O)c3ccccn3)C2)c2c(n(C)c3cc(OC)ccc23)[C@H]1CO
12.8,4.2,8.5,CS(=O)(=O)Nc1ccc2c(c1)[C@@H]1C[C@@H](CC(=O)NCC(F)(F)F)O[C@H](CO)[C@@H]1O2
2.5,5.9,-3.4,O=C(C[C@@H]1CC[C@H]2[C@@H](COC[C@H](O)CN2C(=O)Nc2ccc(Cl)c(Cl)c2)O1)NCc1ccc(Cl)c(Cl)c1
6.9,5.0,1.9,COc1cccc(S(=O)(=O)N2C[C@H](O)COC[C@@H]3O[C@@H](CC(=O)Nc4ccccc4)CC[C@H]32)c1

Further results.
DUX4 inh,DUX4 inh difference,DUX4 inh control,molecule
-0.2,-4.4,4.2,O=S(=O)(c1ccc(F)cc1)N1CC[C@@H]2[C@@H](CO)Nc3ccc(Br)cc3[C@@H]21
2.3,2.7,-0.4,C[C@@H]1CN([C@@H](C)CO)C(=O)c2ccccc2-c2ccccc2CO[C@H]1CN(C)S(=O)(=O)c1cccc(C#N)c1
0.4,-1.4,1.8,CC(=O)N1[C@H](CN(C(=O)c2ccccc2)C(C)C)[C@@H](c2ccccc2)[C@@H]1CO
-1.4,-1.2,-0.2,CN(C)CC(=O)N1[C@H](C#N)[C@H](c2ccc(C#CC3CCCC3)cc2)[C@@H]1CO
-2.9,-4.1,1.2,CCc1nc(N2[C@H](C#N)[C@@H](c3ccccc3-c3ccccc3C)[C@H]2CO)sc1C
-2.7,-6.8,4.0,OC[C@H]1[C@@H]2c3ccccc3NC[C@@H]2N1CC1CCCCC1
2.3,4.5,-2.2,Cc1ccc(S(=O)(=O)N[C@@H]2C=C[C@@H](CC(=O)NCCCN(C)C)O[C@@H]2CO)cc1
0.2,-5.7,5.9,CC(=O)N1CC2(C1)[C@@H](c1ccc(-c3ccc(C#N)cc3)cc1)[C@@H](CO)N2CCC(F)(F)F

Part of the list above, in CSV form:
SMILES,DUX4 inh,DUX4 inh difference,DUX4 inh control
OC[C@H]1[C@@H]2c3ccccc3NC[C@@H]2N1CC1CCCCC1,-2.7,-6.8,4.0
CC(=O)N1[C@H](CN(C(=O)c2ccccc2)C(C)C)[C@@H](c2ccccc2)[C@@H]1CO,0.4,-1.4,1.8
CC(=O)N1CC2(C1)[C@@H](c1ccc(-c3ccc(C#N)cc3)cc1)[C@@H](CO)N2CCC(F)(F)F,0.2,-5.7,5.9
CCc1nc(N2[C@H](C#N)[C@@H](c3ccccc3-c3ccccc3C)[C@H]2CO)sc1C,-2.9,-4.1,1.2
O=S(=O)(c1ccc(F)cc1)N1CC[C@@H]2[C@@H](CO)Nc3ccc(Br)cc3[C@@H]21,-0.2,-4.4,4.2
Cc1ccc(S(=O)(=O)N[C@@H]2C=C[C@@H](CC(=O)NCCCN(C)C)O[C@@H]2CO)cc1,2.3,4.5,-2.2

(more compounds)
DUX4 inh,DUX4 inh difference,DUX4 inh control,molecule
-0.6,-4.0,3.5,O=C(NCC[C@H]1CC[C@@H](NC(=O)c2ccncc2)[C@H](CO)O1)Nc1ccc(Cl)cc1
5.8,2.9,2.9,CCCNC(=O)C[C@@H]1C[C@@H]2c3cc(NS(=O)(=O)c4ccc(F)cc4)ccc3O[C@@H]2[C@H](CO)O1
16.0,1.2,14.7,O=C(C[C@H]1CC[C@@H]2[C@H](COC[C@H](O)CN2C(=O)Nc2ccc(F)cc2)O1)NCCCN1CCOCC1
-0.2,3.6,-3.8,COCC(=O)NC[C@H]1[C@@H](c2ccc(C3=CCCC3)cc2)[C@H](CO)N1C(=O)C1CC1
2.0,4.9,-2.9,CCCN1C[C@H](C)[C@H](OC)CN(C)C(=O)c2cc(NC(=O)c3cccc(OC)c3)ccc2OC[C@H]1C
10.8,-6.8,17.6,COc1ccc2c3c(n(C)c2c1)[C@@H](CO)N(C(=O)NC(C)C)CC31CCN(Cc2nccs2)CC1
3.0,-1.3,4.3,C[C@H](CO)N1C[C@H](C)[C@H](CN(C)S(=O)(=O)c2cn(C)cn2)Oc2ccc(NC(=O)C3CC3)cc2CC1=O
u,x,x,Cc1cccc(S(=O)(=O)N2CCCCN3[C@H](CO)[C@@H](c4ccc(C#C[C@H](C)O)cc4)[C@@H]3C2)c1

Carrying on:
DUX4 inh,DUX4 inh difference,DUX4 inh control,molecule
u,x,x,O=C(C1CCC1)N1CC[C@@H]2[C@H](CO)Nc3ccc(-c4cccc(F)c4)cc3[C@@H]21
-32.2*,-46.0*,13.9*,C[C@@H](O)C#Cc1ccc([C@H]2[C@@H](CO)N3CCCCN(C(=O)c4ccc5c(c4)OCO5)C[C@H]23)cc1
2.7,3.5,-0.8,O=C([C@H]1[C@H](CO)[C@H]2Cn3c(cccc3=O)[C@@H]1N2S(=O)(=O)c1ccccc1F)N1CCOCC1
3.4,11.3,-7.9,O=C(C[C@H]1CC[C@H](NC(=O)c2ccccn2)[C@H](CO)O1)NCc1cc(F)cc(F)c1
-6.2,-11.1,4.9,C[C@H](CO)N1C[C@H](C)[C@H](CN(C)C(=O)Nc2cccc(Oc3ccccn3)c2)OCc2cnnn2CCCC1=O
0.5,2.1,-1.5,Cc1ccccc1-c1cnc2c(c1)C(=O)N([C@H](C)CO)C[C@H](C)[C@@H](CN(C)CC1CCOCC1)O2
-4.2,-4.4,0.2,C/C=C/c1ccc([C@H]2[C@@H](CN(C)C(C)=O)N(C(=O)NC(C)C)[C@H]2CO)cc1
8.2,2.5,5.7,CO[C@@H]1CN(C)C(=O)c2ccc(NS(C)(=O)=O)cc2OC[C@@H](C)N(Cc2ccccc2)C[C@@H]1C

The list continues:
DUX4 inh,DUX4 inh difference,DUX4 inh control,molecule
-3.5,2.4,-5.9,Cn1cnc(CCNC(=O)C[C@@H]2CC[C@H]3[C@@H](COC[C@@H](O)CN3C(=O)Nc3ccc(C(F)(F)F)cc3)O2)c1
5.0,2.3,2.7,Cc1ccc(S(=O)(=O)N[C@@H]2C=C[C@@H](CC(=O)NC3CCCCC3)O[C@H]2CO)cc1
2.4,1.0,1.4,CC(C)N(C[C@@H]1[C@@H](c2ccccc2)[C@H](CO)N1S(C)(=O)=O)C(=O)CN(C)C
-8.7,-6.2,-2.5,CCCNC(=O)[C@@H]1[C@@H](CO)[C@@H]2Cn3c(ccc(C4=CCCC4)c3=O)[C@H]1N2C(=O)CC1CC1
2.1,3.1,-1.0,COc1ccc(-c2ccc([C@H]3[C@H](C#N)N[C@H]3CO)cc2)cc1
3.1,6.6,-3.5,O=C(C[C@@H]1CC[C@@H]2[C@H](COC[C@@H](O)CN2S(=O)(=O)c2cccc(Cl)c2)O1)N1CCOCC1
3.6,-6.3,9.9,CCCNC(=O)N1CC2(CN(C(=O)C3CCC3)C2)c2c([nH]c3cc(OC)ccc23)[C@@H]1CO
1.4,2.3,-1.0,O=C(C[C@H]1CC[C@@H](NS(=O)(=O)c2ccccc2F)[C@@H](CO)O1)NCCCN1CCOCC1

(cont.)
DUX4 inh,DUX4 inh difference,DUX4 inh control,molecule
4.2,-2.2,6.4,CCCNC(=O)N1[C@@H](C#N)[C@@H](c2ccc(C#Cc3ccc(F)cc3)cc2)[C@@H]1CO
0.2,0.0,0.1,O=C(Nc1ccc(F)cc1)N1C[C@@H]2[C@H](c3ccccc31)[C@H](CO)N2Cc1cocn1
-0.2,-0.4,0.2,C[C@H](O)C#Cc1ccc([C@@H]2[C@H](CO)N3CCCCN(C(=O)Nc4ccccc4)C[C@@H]23)cc1
u,x,x,O=S(=O)(c1ccc(F)cc1)N1CCCCN2[C@H](CO)[C@@H](c3ccc(-c4cncnc4)cc3)[C@H]2C1
-2.8,1.8,-4.5,CO[C@@H]1CN(C)C(=O)c2ccc(NC(=O)C3CCC3)cc2OC[C@H](C)N(Cc2ccncc2)C[C@H]1C
6.2,5.6,0.5,O=C(c1ccccn1)N1CC2(C1)[C@H](c1ccccc1)[C@H](CO)N2C(=O)C1CCC1
-0.4,-3.9,3.5,CO[C@H]1CN(C)C(=O)c2cc(NC(=O)C3CC3)ccc2OC[C@@H](C)N(C(=O)NC(C)C)C[C@H]1C
2.6,3.0,-0.4,O=C(c1cccc(F)c1)N1CC(=O)N2[C@@H](CO)[C@H](c3ccc(C#Cc4ccc(F)cc4)cc3)[C@@H]2C1

New compounds follow:
DUX4 inh,DUX4 inh difference,DUX4 inh control,molecule
-4.9,-0.3,-4.6,CCS(=O)(=O)Nc1ccc2c(c1)C(=O)N(C)[C@@H]1CC[C@H](CC(=O)OC)O[C@@H]1CO2
3.9,2.3,1.6,O=C(C[C@H]1C[C@H]2c3cc(NC(=O)c4ccc5c(c4)OCO5)ccc3O[C@H]2[C@@H](CO)O1)NCc1ccc(Cl)cc1
16.7,-0.5,17.3,COCC#Cc1ccc([C@@H]2[C@H](CO)N3CCCCN(Cc4ccncc4)C[C@@H]23)cc1
u,x,x,COc1ccc2c3c([nH]c2c1)[C@@H](CO)N(Cc1ccc(F)cc1)CC31CN(Cc2ccccn2)C1
-1.3,-1.0,-0.3,COCC(=O)N(C)C[C@@H]1Oc2cc(C#CC(C)(C)O)ccc2S(=O)(=O)N([C@@H](C)CO)C[C@@H]1C
u,x,x,COc1ccccc1-c1ccc2c(c1)[C@H]1[C@H](CCN1S(=O)(=O)c1ccccc1F)[C@H](CO)N2
-2.5,-4.1,1.6,CCC(=O)N1C[C@@H](C)[C@H](OC)CN(C)C(=O)c2cc(NC(=O)c3ccccc3)ccc2OC[C@H]1C
1.0,1.4,-0.4,C[C@@H]1CN([C@@H](C)CO)C(=O)c2cc(NS(=O)(=O)c3cn(C)cn3)ccc2O[C@@H]1CN(C)S(=O)(=O)c1ccc(F)cc1

(list continues)
DUX4 inh,DUX4 inh difference,DUX4 inh control,molecule
9.0,-4.3,13.3,C[C@H](O)C#Cc1ccc([C@@H]2[C@@H](CO)N3CCCCN(S(=O)(=O)Cc4ccccc4)C[C@H]23)cc1
-6.0,-16.1,10.1,CC(C)NC(=O)NCC[C@@H]1CC[C@H](NS(=O)(=O)c2ccc(Oc3ccccc3)cc2)[C@H](CO)O1
-1.5,-4.7,3.1,COC(=O)C[C@H]1CC[C@@H]2[C@@H](COc3ccc(NC(=O)Nc4c(C)noc4C)cc3C(=O)N2C)O1
2.0,1.3,0.7,C[C@@H]1CN([C@@H](C)CO)C(=O)CCCn2nncc2CO[C@H]1CN(C)S(=O)(=O)c1ccc(C#N)cc1
6.2,9.1,-2.9,O=C(C[C@@H]1C=C[C@@H](NC(=O)C2CCC2)[C@H](CO)O1)NCc1ccccc1Cl
11.0,-5.8,16.8,COc1ccc2c3c(n(C)c2c1)[C@H](CO)N(C(=O)CN(C)C)CC31CN(C(=O)CN(C)C)C1
26.1,18.4,7.7,C[C@@H]1CN([C@@H](C)CO)C(=O)c2c(c3ccccc3n2C)-c2ccccc2CO[C@@H]1CN(C)C(=O)Nc1ccc(F)cc1
5.2,3.2,2.0,C[C@@H]1CN([C@@H](C)CO)C(=O)c2cc(NC(=O)CCCN(C)C)ccc2O[C@@H]1CN(C)Cc1ccc(Cl)c(Cl)c1
-0.4,-4.6,4.2,CCN1[C@H](C(=O)NCc2ccccn2)[C@@H](CO)[C@@H]2Cn3c(ccc(C4=CCCCC4)c3=O)[C@@H]21
2.9,4.0,-1.1,C[C@@H]1CN([C@@H](C)CO)C(=O)c2cc(NS(=O)(=O)c3ccc(F)cc3)ccc2O[C@H]1CN(C)Cc1ccc(Oc2ccccc2)cc1
4.8,3.1,1.7,O=C(NCC[C@@H]1CC[C@H](NS(=O)(=O)c2ccccc2)[C@H](CO)O1)c1ccccc1F
